Screening data deposited in PubChem by ICCB-Longwood Screening Facility, Harvard Medical School.
MgrA DNA FP: S. aureus MgrA activity modulators, primary screen, biochemical, S. aureus Newman, fluorescence polarization; 84,000 compounds, 0.13% hits; inhibition, %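 (about 10 µg/mL by stock and volumes)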; AID 602314, 2012; MgrA-DNA binding;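 active means above 50% in either of two replicates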;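 further: 0% = protein plus DNA without compound and 100% = DNA alone without protein; higher means less MgrA bound to DNA so lower polarization; one replicate is shown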
Sa helicase inh: inhibitors of S. aureus replicative helicase, primary screen, biochemical, fluorescence unwinding readout | purified S. aureus helicase, fluorescence unwinding assay; about half of the hits fall short of the stated cut | inhibition, %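 (tested at about 80 µM)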 | 120,000 compounds, 0.05% hits | AID 485395, 2010;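 active means both duplicates at 50% or more, or one of them with a favoured structure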;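 further: 0% = mean of negative control wells and 100% = mean of positive control wells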
Numbers without * were called inactive; nt = not tested or not shown; & = joins results of further samples.

SMILES	MgrA DNA FP	Sa helicase inh
C=CCN1C(=O)/C(=C2/C(=O)N(CC=C)c3ccccc32)SC1=S	3.7	2
CCCN(CCC)S(=O)(=O)c1ccc(OC)c2ncccc12	-3.0	5
Cc1nn(Cc2ccccc2Cl)c2sc(C(=O)OCc3nc4ccccc4c(=O)n3CC#N)cc12	nt	0
Cc1cc(C(=O)OCC(=O)c2cc(C)n(-c3ccc(Cl)cc3)c2C)no1	nt	-7
COc1cccc(NC(=S)N(C)c2ccc(O)cc2)c1	nt	19
Cn1nc(C(=O)N2CCC(c3ccccc3)C2)c2c1-c1ccsc1CC2 (stereo not drawn)	nt	2
CCn1c(COc2cccc(C)c2)nnc1SCC(=O)N1C(C)CCCC1C (stereo not drawn)	-1.2	0
Clc1ccc(-c2noc(CSc3ccccc3)n2)cc1	-1.1	22
Cc1cc(C)nc(-n2cc3c(=O)[nH]c(=S)[nH]c3n2)n1	-1.2	5
CCOC(=O)c1cnc(N2CCN(c3ccccc3)CC2)[nH]c1=O	0.9	-4
O=C(c1ccco1)N1CCN(C2=Nc3cccc4cccc2c34)CC1	nt	-56
BrCC1(c2ccccc2)OCCO1	-1.3	nt
Cc1ccc(S(=O)(=O)Nc2cccc(-c3ccc4nnc(C)n4n3)c2)s1	nt	9
O=c1[nH]cnc2c1sc1nc(-c3ccco3)c3c(c12)CCCC3	nt	2
CCn1c(C(Cc2ccccc2)NC(=O)C(C)(C)C)nc2ccccc21 (stereo not drawn)	nt	16
COc1ccc(C2C(C#N)=C(N)Oc3cc4c(cc32)OCO4)cc1 (stereo not drawn)	0.2	-4
O=C(Nc1nnc(-c2cccc([N+](=O)[O-])c2)s1)c1ccc(S(=O)(=O)N2CCCCC2)cc1	1.2	nt
Cc1ccccc1NC(=O)C1(N(CC(C)C)C(=O)Cn2nnnc2N)CCCCC1	nt	-8
CC(NS(=O)(=O)c1ccccc1)C(=O)NCc1ccc(CN2CCCC2)cc1 (stereo not drawn)	nt	-18
Cc1ccc(NC(=O)c2nsc(Cl)c2Cl)cc1	-1.4	nt
CCOc1ccc(N=c2ssc(SC)c2-c2ccccc2)cc1	-2.2	nt
Cc1cccc(Nc2nc(-c3sc(C)nc3C)cs2)c1	3.1	-8
Cc1ccc2[nH]c(=O)c(CN(C)S(C)(=O)=O)cc2c1	nt	-29
Cc1cc2nc(-c3ccc(N=Cc4cccc(C)c4O)cc3)oc2cc1C	1.5	4
CCn1c(C(=O)N2CCC(C(=O)NCc3ccc(Cl)cc3)CC2)cc2occc21	-1.4	10
CN/N=C/c1ncc(C(F)(F)F)cc1Cl	nt	-11
CCOC(=O)c1sc2nc(C(C)Sc3nnc(C)s3)[nH]c(=O)c2c1C (stereo not drawn)	nt	-26
Cc1ccc(OCC(=O)Nc2nc3ccccc3s2)c(C)c1	0.8	18
CCCCN(C)S(=O)(=O)c1cc(-c2n[nH]c(=O)c3ccccc23)ccc1C	nt	-5
COC(=O)c1sccc1N1C(=O)C=CC1=O	-3.8	nt

Quoted at random: 3 records from the list.
SMILES	MgrA DNA FP	Sa helicase inh
CCOC(=O)c1cnc(N2CCN(c3ccccc3)CC2)[nH]c1=O	0.9	-4
C=CCN1C(=O)/C(=C2/C(=O)N(CC=C)c3ccccc32)SC1=S	3.7	2
Cc1ccc(S(=O)(=O)Nc2cccc(-c3ccc4nnc(C)n4n3)c2)s1	nt	9

The list continues:
SMILES	MgrA DNA FP	Sa helicase inh
O=S(=O)(Cc1ccc(Cl)cc1Cl)C1CCCCC1O (stereo not drawn)	nt	4
Cc1ccc(Oc2ncccc2NC(=O)CCCC(=O)O)c2c1CCC2	-2.9	nt
Cc1cc(C)n(CC(O)CON=C2c3ccccc3-c3ccccc32)n1 (stereo not drawn)	nt	11
COc1ccc(C2=NN(C(C)=O)CC2)cc1	1.8	0
c1ccc2c(c1)CCCN2c1nc2ccccc2n2cnnc12	nt	-13
COc1ccc(CCNC(=S)N2CCCC(C(F)(F)F)C2)cc1 (stereo not drawn)	nt	16
O=C(CNC(c1ccccc1)c1ccc(Cl)cc1)N1CCNC1=O (stereo not drawn)	nt	-7
CCOc1ccccc1NC(=O)C1CCCN1C(=O)c1cccs1 (stereo not drawn)	nt	-6
Nc1sc(=S)nc2ccccc12	nt	-2
O=S(=O)(c1ccc(Cl)c(Cl)c1)N1CCOCC1	nt	9
COc1cc(/C=N/NC(=O)N/N=C/c2ccc(O)c(OC)c2)ccc1O	0.0	nt
N#Cc1cccc(NC(=O)c2coc(=O)c3ccccc23)c1	nt	11
O=C(Nc1ccc(N2CCCCC2)cc1)c1ccncc1	2.5	6
C[C@@H](C(=O)N1CCN(c2ccccc2)CC1)N1C(=O)C2CC=CCC2C1=O (stereo partly drawn)	nt	-9
O=c1cc(CSc2n[nH]c(-c3ccccc3)n2)c2ccc(O)cc2o1	-1.5	nt

Sorted by the number under MgrA DNA FP (smallest number first): some entries from above.
SMILES	MgrA DNA FP	Sa helicase inh
Cc1ccc(Oc2ncccc2NC(=O)CCCC(=O)O)c2c1CCC2	-2.9	nt
COc1cc(/C=N/NC(=O)N/N=C/c2ccc(O)c(OC)c2)ccc1O	0.0	nt
O=C(Nc1ccc(N2CCCCC2)cc1)c1ccncc1	2.5	6

Next section.
SMILES	MgrA DNA FP	Sa helicase inh
COC(=O)CSc1nc(-c2ccccc2)cc(C(F)(F)F)n1	-0.3	16
Cc1cccc(CCNC(=O)[C@H](Cc2ccccc2)N2Cc3ccccc3C2=O)c1	0.0	5
CCc1cc(C(=O)OC)c(NC(=O)CN2CCN(c3ccccc3)CC2)s1	3.8	25
COc1ccccc1C(=O)CSc1cccc[n+]1[O-]	nt	-9
CCOC(=O)c1c(C)[nH]c(C(=O)CN2CCCCC2)c1C	nt	-12
O=c1[nH]c(CN(CCO)Cc2nc3sccc3c(=O)[nH]2)nc2sccc12	nt	0
COc1cccc(-c2nn(C)c3sc(C(=O)NCCc4ccc(OC)c(OC)c4)cc23)c1	nt	13
Cc1ccc(-c2nnc(CCC(=O)NCc3ccccc3CN3CCCC3)o2)cc1	nt	8
Cn1c(CNc2ccccc2)nc2ccccc21	nt	10
O=C(NC(=S)Nc1ccccc1Cl)c1ccc(Cl)cc1	2.0	6
CCOC(=O)Nc1ccc(C)s1	-0.2	7
Cc1nc(C)c(C(=O)NC2CCCCCC2)s1	nt	22
CC12CCC(CC(=O)c3ccccc3)(CC1)CC2	1.8	5
COc1ccc(NC(=O)CCn2c(=O)[nH]c3ccccc3c2=O)cc1OC	-0.9	2
Cc1cc(OC(=O)c2ccco2)nc(SCc2c(Cl)cccc2Cl)n1	3.0	nt
COC(=O)c1ccc(CNC(=O)c2ccc(Oc3ccccc3)cc2)cc1	2.5	-14
CCCCCOC(=O)C1=C(C)NC2=C(C(=O)CCC2)C1c1cc(Br)c(O)c(OCC)c1 (stereo not drawn)	1.4	nt
N/C(=C\C(=O)c1ccc(Br)cc1)C(F)(F)F	-0.8	-4
Clc1cccnc1N1CCOCC1	-1.9	nt
CCOc1ccc(S)cc1	nt	2
C=CCC12CCC(=O)C=C1CCCC2=O (stereo not drawn)	1.3	-3
O=C(CSc1nc(C(F)(F)F)cc(=O)[nH]1)NCc1ccco1	nt	-16
COc1ccc(Nc2cc(C(=O)NCCCN3CCOCC3)c3ccccc3n2)cc1OC	nt	-29
O=c1[nH]ncc(N2CCCCC2)c1Cl	nt	7
Nc1c(N(Cc2ccco2)C(=O)c2ccccc2)c(=O)[nH]c(=O)n1Cc1ccccc1	nt	-14
CC(Cc1cccs1)NC(=O)Nc1ccccc1 (stereo not drawn)	nt	1
COc1ccc(CCNC(=O)CCn2c(SCC#N)nc3ccccc3c2=O)cc1OC	-0.4	-3
O=C(NC1CCCC1)c1ccc(COc2cc(Cl)ccc2Cl)o1	-0.4	2
CCCCCCCCCCCCSC(=S)c1c(C)[nH]n(-c2ccccc2)c1=O	1.4	nt
COc1cc(OC)cc(C(=O)Nc2cccc3nsnc23)c1	3.1	10
Cc1nc(C(N)=NC(=O)c2ccccc2)cs1	-1.6	nt
CNC(=O)c1cccc2cccc(Sc3ccccc3C(=O)OC)c12	0.7	nt
O=[N+]([O-])c1cc(C(F)(F)F)ccc1N1CCCCC1	-1.4	nt
CCCC(=O)Nc1sc(C(=O)Nc2cccc(C)c2C)c(C)c1C#N	-0.9	5
CC(=O)Nc1cccc(N(C)S(C)(=O)=O)c1	5.1	15
FC(F)(F)c1cccc(-c2nnnn2-c2cccc(Cl)c2)c1	-1.4	nt
CCNc1nc(NC(C)C)nc(SCCOc2ccccc2)n1	0.3	nt
CCOC(=O)c1snc2c(=O)[nH]cnc12	0.3	3
CCN(CC)S(=O)(=O)c1cccc(C(=O)NCCCN2CCOCC2)c1	nt	-13
CCOc1ccc(CN(C)C(=O)CNC(N)=O)cc1	nt	-4
Cc1ccc(CSc2ccccc2[N+](=O)[O-])cc1	-1.7	nt
CC1=CC(C)(C)N(C(=O)/C=C/c2ccccc2)c2ccc(C)cc21	2.0	8
Cc1ccc(Cn2nc(C)c(C(=O)NCc3ccco3)c2Cl)cc1	nt	11
CC(=O)NOC(=O)c1c(-c2c(Cl)cccc2Cl)noc1C	nt	-16
O=C(CCN1N=C(c2ccccc2)CCC1=O)NC1CCCCC1	nt	-15

By substructure, those above with a nitro group on carbon
SMILES	MgrA DNA FP	Sa helicase inh
O=C(Nc1nnc(-c2cccc([N+](=O)[O-])c2)s1)c1ccc(S(=O)(=O)N2CCCCC2)cc1	1.2	nt
O=[N+]([O-])c1cc(C(F)(F)F)ccc1N1CCCCC1	-1.4	nt
Cc1ccc(CSc2ccccc2[N+](=O)[O-])cc1	-1.7	nt

Further results:
SMILES	MgrA DNA FP	Sa helicase inh
O=C(C1CCCC1)N1CCc2ccccc21	3.8	6
O=C(NCc1ccccc1)c1cccnc1Nc1ccccc1	0.4	7
Cc1cccc(N2C(=O)C3C4C=CC(C4)C3C2=O)n1 (stereo not drawn)	3.2	nt
CCN1CCSc2ccc(C(=O)NCC3CCCO3)cc21 (stereo not drawn)	nt	2
Cc1cc(C(=O)CSc2ccc(S(=O)(=O)N3CCN(Cc4ccccc4)CC3)cn2)c(C)n1C	nt	8
CCc1nnc(NC(=O)Nc2ccccc2C(F)(F)F)s1	3.9	15
CC(C)COCC(CN(Cc1ccccc1)c1ccccc1)N1CCCC1 (stereo not drawn)	6.2&0.6&-1.8	nt
CCN(CC)C(=O)COc1ccc(/C(C)=N/NC(=O)Cc2ccccc2)cc1	nt	30
Nc1c(-c2ccc(Cl)cc2)cnc2ncnn12	1.4	nt
Cc1ccc2[nH]c(=O)c(-c3ccccc3)c(O)c2c1	-3.5	nt
CCCCC(=O)Nc1ncc(Cc2ccccc2)s1	-0.5	21
Cc1ccc(NC(=O)CS(=O)Cc2nc(-c3ccc(C)cc3)oc2C)cc1 (stereo not drawn)	-1.3	2
CCN(CC)C(=S)SC1CCCCN(C(=O)c2ccc(F)cc2)C1=O (stereo not drawn)	nt	11
CC(C)(C)OC(=O)COc1ccc(C#N)cc1	nt	-7
CCOCCCN=C1Sc2nc3cc4c(cc3cc2CN1CC1CCCO1)OCO4 (stereo not drawn)	18	6
CSc1nn2c(=O)c(C(C)(C)C)nnc2s1	nt	3
COc1cccc(NC(=O)C(c2ccccc2)N2CCN(S(=O)(=O)c3ccccc3)CC2)c1 (stereo not drawn)	nt	-9
CCC1=NN(C(=O)COc2ccccc2C)C(O)(c2ccncc2)C1 (stereo not drawn)	-0.6	1
COc1ccc(CNc2cccc(C(=O)O)c2C)cc1OC	2.8	12
O=c1c(C(CN2CCOCC2)c2ccccc2)nc(-c2ccccc2)nn1CN1CCOCC1 (stereo not drawn)	-1.9	nt
CC(C)(C)NC(=O)CN1C(=O)CCC1=O	-0.5	1
CC(=O)Nc1nc2ccccc2n1Cc1ccc(C)cc1	1.6	-8
CCOC(=O)c1noc(C)c1-c1csc(COc2ccccc2)n1	nt	23
C=CC(=O)NCc1ccc(-c2csnn2)cc1	-2.9	nt
CSc1ccccc1N1C(=O)C=CC1=O	nt	26
O=C1OCCC1SC1=N/C(=C/c2ccco2)C(=O)N1c1ccc(OC(F)F)cc1 (stereo not drawn)	nt	4
CCOC(=O)Cn1c2ccccc2n2nc(C)nc12	nt	10
COC(=O)C1=C(N)CCC(C(=O)OC)C1 (stereo not drawn)	-3.0	nt
NC(=O)c1ccsc1NC(=O)c1ccco1	nt	13
Cc1nn(-c2ccccc2)c2c1C1(C(=O)Nc3ccccc31)C(C#N)=C(N)O2 (stereo not drawn)	2.2	nt
CCOC(=O)NS(=O)(=O)c1ccc(C)cc1	-1.8	13
CCCCn1c(N)c(C#N)c2nc3ccccc3nc21	2.6	1
O=C(COc1cccc2c1CCN(Cc1ccc(Br)cc1)C2=O)N1CCOCC1	nt	20
CCOC(=O)N1CCN(C(=O)COc2ccc3c(c2)C(=O)CC(C)(C)O3)CC1	nt	-4
Cc1ccc(O)c(-n2nc3ccccc3n2)c1	nt	7
O=C(O)CN(c1ccccc1)c1ccccc1	nt	27
CC1=C(C(=O)OC2CCCC2)C(c2ccncc2)C2=C(CC(c3ccccc3)CC2=O)N1 (stereo not drawn)	0.0	-14
Nc1c(C(=O)O)sc2ncccc12	-0.4	nt
CSc1nnc(-n2cccc2)s1	1.9	nt
CN1C/C(=C\c2ccccc2Cl)C(=O)/C(=C/c2ccccc2Cl)C1	-5.0&-0.7	nt
COC(=O)Nc1ccc(SCC(=O)c2ccc(Cl)cc2)cc1	nt	-2
CNC(=O)c1ccsc1NC(=O)c1cccc(S(C)(=O)=O)c1	nt	8

Sorted by SMILES length (lowest first): 4 of the compounds above.
SMILES	MgrA DNA FP	Sa helicase inh
CCCN(CCC)S(=O)(=O)c1ccc(OC)c2ncccc12	-3.0	5
O=C(CNC(c1ccccc1)c1ccc(Cl)cc1)N1CCNC1=O (stereo not drawn)	nt	-7
CCN(CC)S(=O)(=O)c1cccc(C(=O)NCCCN2CCOCC2)c1	nt	-13
Cc1cc(C(=O)CSc2ccc(S(=O)(=O)N3CCN(Cc4ccccc4)CC3)cn2)c(C)n1C	nt	8

These rows are one share of the data; the hit share may differ from the screen's.
